EPAC1 ag val: Validation qHTS for agonist of cAMP-regulated guanine nucleotide exchange factor 3 (EPAC1). Rap guanine nucleotide exchange factor 3 (Homo sapiens), O95398. EPAC1 Rap1b BODIPY-GDP exchange, fluorescence. Potency, µM, for the others: max response, positive = active, usual class: activators. 1% of 16,000 active; active means well fitted activation curve with a large enough effect; inconclusive means small, poorly fitted or top-dose-only effect; inactive means no such curve, though single readings can be large or run the other way;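 further: nearly all actives have a fitted effect of over 70% in size; series mostly up to about 76 or 150 µM; scaled to a cAMP control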
Target sequence (O95398 whole entry, looked up): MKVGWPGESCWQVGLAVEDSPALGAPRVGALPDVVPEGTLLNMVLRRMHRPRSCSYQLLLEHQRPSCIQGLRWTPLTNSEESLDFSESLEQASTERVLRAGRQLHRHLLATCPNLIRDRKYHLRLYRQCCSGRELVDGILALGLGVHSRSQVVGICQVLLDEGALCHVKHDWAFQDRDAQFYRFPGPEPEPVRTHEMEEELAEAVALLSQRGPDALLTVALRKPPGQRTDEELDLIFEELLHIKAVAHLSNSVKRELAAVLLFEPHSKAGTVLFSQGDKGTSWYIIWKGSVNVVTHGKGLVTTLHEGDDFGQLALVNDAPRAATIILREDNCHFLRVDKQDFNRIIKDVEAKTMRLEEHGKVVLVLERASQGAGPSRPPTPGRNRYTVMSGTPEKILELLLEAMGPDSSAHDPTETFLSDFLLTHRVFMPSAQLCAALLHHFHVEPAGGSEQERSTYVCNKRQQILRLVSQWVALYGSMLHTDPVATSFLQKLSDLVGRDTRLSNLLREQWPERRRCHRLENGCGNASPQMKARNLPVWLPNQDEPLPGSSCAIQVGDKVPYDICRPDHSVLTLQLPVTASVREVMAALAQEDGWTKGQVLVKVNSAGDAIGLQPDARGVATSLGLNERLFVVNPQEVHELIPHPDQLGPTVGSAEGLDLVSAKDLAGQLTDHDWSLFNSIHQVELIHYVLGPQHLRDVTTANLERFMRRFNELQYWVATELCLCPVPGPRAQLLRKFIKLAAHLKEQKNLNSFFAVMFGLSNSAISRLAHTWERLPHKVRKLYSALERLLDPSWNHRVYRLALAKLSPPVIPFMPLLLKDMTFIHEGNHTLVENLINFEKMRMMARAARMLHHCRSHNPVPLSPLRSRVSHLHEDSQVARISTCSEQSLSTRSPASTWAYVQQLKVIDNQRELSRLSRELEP
The depositor's hits bear a star; u = inconclusive; & = joins results of further samples; ! = not confirmed by another sample; [ ] = remark or other dose. On the % scale 0 is the no-effect control and ±100 the full control effect; potency means the concentration at half of the fitted maximal effect. An excerpt; rates above refer to the full screens.

structure | EPAC1 ag val
CNC(=O)c1cc(Oc2ccc(NC(=O)Nc3ccc(Cl)c(C(F)(F)F)c3)cc2)ccn1 | -5.5%
O=C(/C=C/c1ccccc1)OC1CC(O)C2(O)C=CO[C@@H](OC3OC(CO)C(O)C(O)C3O)C12 (stereo partly specified) | 10.6%
Cc1noc(C)c1-c1ccc2ncnc(N3CCC(C(=O)O)CC3)c2c1 | 21.4%
N#CCCn1c(=O)c(-c2ccc(F)cc2)nc2cnc(OCc3ccccc3)nc21 | -26.8%
O=c1c(O)c(-c2ccc(O)cc2)oc2ccc(O)cc12 | 6.2%
C/C=C1\NC(=O)[C@H]2CSSCC/C=C/[C@H](CC(=O)N[C@H](C(C)C)C(=O)N2)OC(=O)C(C(C)C)NC1=O (stereo partly specified) | -17.8%
O=C(NCCCN1CCCCCC1)C(c1ccccc1)C1CCCCC1 (stereo unspecified) | -9.2%
CCC1(C2CCN(C(=O)c3ccccc3Cl)CC2)NC(=O)N(CCc2scnc2C)C1=O (stereo unspecified) | -7.2%
C[N+]1(C)C2CCC1CC(OC(=O)C(O)c1ccccc1)C2 (stereo unspecified) | 26.0%
COc1cc(CNS(=O)(=O)CCl)cc(OC)c1OC | 20.4%
O=[N+]([O-])c1ccc(O)c2ncccc12 | 25.8%
Cc1cnc(C)c(-c2cc(F)cc3c2OC(CNC(=O)c2cc(Cl)ccc2F)C3)n1 (stereo unspecified) | -15.1%

(continued)
structure | EPAC1 ag val
CCOC(=O)/C=C(C)/C=C/C=C(C)/C=C/c1c(C)cc(OC)c(C)c1C | u
CCOC(C)=O | -57.3%[inhibitor]
O=c1c(-c2ccccc2)nc2cnc(N3CCOCC3)nc2n1-c1ccccc1 | -31.0%[inhibitor]
COc1ccc(-c2oc3ccccc3c(=O)c2O)cc1 | -5.0%
C[C@@H]1CCC(=O)N(C[C@@H](C)CSc2ccccc2)CC1 | -41.8%[inhibitor]
CCCCCCCN(CC)CCCC(O)c1ccc(NS(C)(=O)=O)cc1 (stereo unspecified) | 6.1%
CC(CN1CCc2nnc(CNC(=O)c3cccc(F)c3)n2CC1)c1ccccc1 (stereo unspecified) | 0.3%
NC/C=C\C(=O)O | 3.7%&-4.5%&3.1%
COc1ccc(NC(=O)N2CCC3(CC2)CCN(C(=O)c2cnccn2)CC3)cc1 | -41.1%[inhibitor]
Cc1cccc(C)c1OCC(N)C(C)C (stereo unspecified) | -8.6%
CN1CCN(C2=Cc3ccccc3Oc3ccc(Cl)cc32)CC1 | 4.5%&-3.2%
NC(Cc1cc(I)c(Oc2ccc(O)c(I)c2)c(I)c1)C(=O)O (stereo unspecified) | 21.2%

(listing goes on)
structure | EPAC1 ag val
Cc1c(C(N)=O)cc([N+](=O)[O-])cc1[N+](=O)[O-] | u
O=C(CN1Cc2ccccc2OC(c2ccsc2)C1)N1CCN(Cc2ccc3c(c2)OCO3)CC1 (stereo unspecified) | 8.3%
CCCn1c(=O)[nH]c(=O)c2[nH]cnc21 | 2.9%&9.9%
CCN(CC)C(C)CN1c2ccccc2Sc2ccccc21 (stereo unspecified) | 8.4%&-43.8%&-14.8%
CN1CCN(c2ncncc2-c2ccc(N(C)C)cc2)CC1 | 3.7%
CN(C)C(=O)Nc1ccc(Cl)c(Cl)c1 | 24.8%
Cc1nc2cnc(Oc3ccccc3)nc2n(C)c1=O | -31.8%
O=C(O)/C=C(\CC(=O)O)C(=O)O | u
COc1cccc(Cn2c(=O)c(-c3ccc(F)cc3)nc3cnc(N(C)C)nc32)c1 | -11.3%
COC1=C(OC)C(=O)C(CCCCCCCCCCO)=C(C)C1=O | -15.0%
CCC1CN(CCNC(=O)c2cc(C)nn2CC)Cc2cc(OC)ccc2O1 (stereo unspecified) | -3.3%
O=C(O)C1CN(CCCP(=O)(O)O)CCN1 (stereo unspecified) | -2.3%

Next part.
structure | EPAC1 ag val
CCn1c(-c2cccnc2)nc2cc(NC(=O)COC)cc(C(=O)N3CCc4ccccc4C3)c21 | -1.3%
COc1ccc(-n2c(CNC(=O)c3cccc4ccccc34)nnc2SC)cc1 | 15.6%
CC(C)NC(=O)N1CC[C@@]2(CCCN(C(=O)c3ccncc3)C2)C1 | 10.4%
CC(C)C(=O)OCC(=O)[C@@]12O[C@H](C3CCCCC3)O[C@@H]1C[C@H]1[C@@H]3CCC4=CC(=O)C=C[C@]4(C)[C@H]3[C@@H](O)C[C@@]12C | -16.0%
CC1(C)Oc2ccc3ccc(=O)oc3c2CC1=O | -33.5%[inhibitor]
c1cncc(CNc2nc(-c3cccnc3)nc3ccccc23)c1 | 4.3%
CCC(=O)OCC(=O)[C@@]1(OC(=O)CC)[C@H](C)C[C@H]2[C@H]3[C@H]([C@@H](O)C[C@@]21C)[C@@]1(C)C=CC(=O)C=C1C[C@H]3Cl | -24.9%
O=C(NCc1nnc2n1CCN(Cc1cccc(Cl)c1)CC2)c1cccc(F)c1 | 5.4%
CSC(=N)N | 2.8%&-8.5%
COc1ccc(OC)c(CN2CCOc3ccc(CN4CCC(O)(c5cccnc5)CC4)cc3C2)c1 | -0.4%
COc1cccc(Cn2c(=O)c(-c3cccs3)nc3cncnc32)c1 | u
CC(C)[C@H](CO)Nc1nc(Nc2cccc(Cl)c2)c2ncn(C(C)C)c2n1 | 9.1%

Next structures
structure | EPAC1 ag val
COc1cc(C(=S)N2CCOCC2)ccc1O | -6.2%
COc1ccccc1-c1nc(NCc2cccs2)c2ccccc2n1 | -19.8%
COc1ccc(-c2nc3cc(F)ccc3cc2CN(C(=O)c2ccc3c(c2)OCO3)C2CC2)cc1 | -23.7%
O=C(c1cc(C(F)(F)F)cc(C(F)(F)F)c1)N1CCC[C@@]2(CCN(Cc3ccncc3)C2)C1 | -74.8%[inhibitor]
O=c1c(O)c(-c2cccc(O)c2)oc2ccccc12 | -9.8%
Cc1cc(=O)c(C(=O)NCCCc2ccncc2)c2n1-c1ccccc1SC(c1cccs1)C2 (stereo unspecified) | -2.5%
Cc1ccc(C(=O)N(Cc2cc3cccc(C)c3nc2N(C)C)CC2CCCO2)cc1 (stereo unspecified) | -13.1%
Cc1cccc(CNc2ncnc3ccc(-c4ccccc4C#N)cc23)c1 | -36.7%
CC(=O)N(O)CCCCCNC(=O)CCC(=O)N(O)CCCCCNC(=O)CCC(=O)N(O)CCCCCN | u
CN(C)C(=O)c1ccc(-c2nc(N(C)Cc3ccco3)c3ccccc3n2)cc1 | u
CN(C)C(=O)c1ccc(-c2nc(NCc3cccs3)c3ccccc3n2)cc1 | -31.2%
Nc1ccccc1C(=O)CC(N)C(=O)O (stereo unspecified) | u

The listing continues:
Compound	EPAC1 ag val
CO[C@@H]1[C@@H](O[C@@H]2O[C@H](C)[C@@H](O[C@H]3C[C@@](C)(O)[C@@H](OC(=O)CC(C)C)[C@H](C)O3)[C@H](N(C)C)[C@H]2O)[C@@H](CC=O)C[C@@H](C)C(=O)/C=C/C2OC2C[C@@H](C)OC(=O)C[C@H]1OC(C)=O (stereo partly specified)	-17.1%
C1=Cc2ccccc2/C1=C\c1ccc2c(c1)OCO2	100µM*
O=C(Nc1ccccc1)N1CC[C@@]2(CCCN(C(=O)c3ccncc3)C2)C1	20.9%
Cc1ccc2cc(CN(C(=O)c3ccc4c(c3)OCO4)C3CC3)c(N(C)C)nc2c1	9.1%
O=C(O)c1cc(O)c(O)c(O)c1	22.2%&-2.0%
COc1ccc2[nH]cc(CCNc3ncncc3-c3cccc(NS(C)(=O)=O)c3)c2c1	-9.9%
CCCC(=O)Nc1c(I)cc(I)c(CC(CC)C(=O)O)c1I (stereo unspecified)	8.8%
C/C(=C(\CCOC(=O)c1ccccc1)SS/C(CCOC(=O)c1ccccc1)=C(/C)N(C=O)Cc1cnc(C)nc1N)N(C=O)Cc1cnc(C)nc1N	9.0%

Remaining list, next part
Compound	EPAC1 ag val
COc1cccc(CNC(=O)c2c(OC)cc(=O)n3c2CCN(C(=O)c2cc(F)cc(F)c2)CC3)c1	-4.9%
c1cncc(-c2nc(NCCN3CCOCC3)c3ccccc3n2)c1	20.7%
C[C@@H]1CCC[C@H](C)N1	-10.2%
CCCCCCCCCCCCCCCCO	-1.5%
N#Cc1ccc(CN2CC3(CCN(C(=O)c4cc(C(F)(F)F)cc(C(F)(F)F)c4)CC3)C2)cc1	-25.0%
CC(C)CN1CCC(=O)N(CCOc2ccccc2)CC1	-19.3%
CC(=O)OC1CC2C(C)(C)C(=O)[C@@H]3OC3[C@@]2(C)C2CC[C@]3(C)C(=CC(=O)OC3c3ccoc3)[C@]12C (stereo partly specified)	6.8%
Clc1ccccc1-c1nccc(-n2ccnc2)n1	18.4%

Arranged by length of the SMILES (falling): some entries from above
Compound	EPAC1 ag val
CC(=O)OC1CC2C(C)(C)C(=O)[C@@H]3OC3[C@@]2(C)C2CC[C@]3(C)C(=CC(=O)OC3c3ccoc3)[C@]12C (stereo partly specified)	6.8%
COc1cccc(CNC(=O)c2c(OC)cc(=O)n3c2CCN(C(=O)c2cc(F)cc(F)c2)CC3)c1	-4.9%
c1cncc(-c2nc(NCCN3CCOCC3)c3ccccc3n2)c1	20.7%
CC(C)CN1CCC(=O)N(CCOc2ccccc2)CC1	-19.3%
CCCCCCCCCCCCCCCCO	-1.5%

Next records follow:
Compound	EPAC1 ag val
NCC1CCCCC1CC(=O)O (stereo unspecified)	1.5%
COc1ccc(C2c3cc(OC)c(OC)cc3Cc3c4cc(OC)c(OC)cc4cc[n+]32)cc1OC (stereo unspecified)	-9.8%
c1ccc(CNc2ccnc(-c3cccnc3)n2)cc1	7.8%
O=c1c(CCc2ccccc2)nc2cnc(N3CCOCC3)nc2n1C1CC1	-28.1%
O=C(Nc1ccccc1)N1CCC2(CC1)CCN(C(=O)c1csnn1)CC2	-32.1%[inhibitor]
CC(=O)Nc1cccc(O)c1	-26.0%
COc1cc(=O)n2c(c1C(=O)NC(C)c1ccco1)CCN(C(=O)c1[nH]c(C)cc1C)CC2 (stereo unspecified)	-11.9%
COc1ccc(/C=C/C(=O)/C=C/c2ccc(OC)cc2OC)c(OC)c1	5.0%

Further results follow.
Compound	EPAC1 ag val
C=Cc1ccc(C(=O)N2CCc3c(cnc(C)c3CNC(=O)c3ccc4c(c3)OCO4)C2)cc1	-1.1%
CC(=O)OC(C)OC(=O)C(C)c1ccc(-c2ccccc2)c(F)c1 (stereo unspecified)	-32.1%&-40.7%
COc1cc([C@@H]2c3cc4c(cc3[C@@H](O[C@@H]3O[C@@H]5CO[C@@H](C)O[C@@H]5[C@H](O)[C@@H]3O)[C@H]3COC(=O)[C@H]23)OCO4)cc(OC)c1O	-3.8%
COCC(=O)Nc1cc(C(=O)N2CCCC2c2nccs2)c2c(c1)nc(-c1ccncc1)n2C (stereo unspecified)	-17.1%
CCOC(=O)OC(C)OC(=O)[C@@H]1N2C(=O)[C@@H](NC(=O)[C@H](N)c3ccccc3)[C@H]2SC1(C)C (stereo partly specified)	-27.3%
O=C(c1cnccn1)N1CCC2(CCCN(c3ccc(-c4ccccc4)cc3)C2)CC1	-36.5%
C[C@@H]1C[C@H]2[C@@H]3CCC4=CC(=O)C=C[C@]4(C)[C@@]3(F)[C@@H](O)C[C@]2(C)[C@@]1(O)C(=O)COP(=O)(O)O	20.4%
COC(=O)c1cc(-c2c(-c3ccc4c(c3)OCO4)noc2-c2ccsc2)cc([N+](=O)[O-])c1	-11.6%

Other structures follow.
Compound	EPAC1 ag val
COc1ccccc1CNc1nc(-c2ccccc2OC)nc2ccccc12	2.6%
CC[N+](C)(CC)CCOC(=O)C1c2ccccc2Oc2ccccc21	-6.6%
CC/C=C(\C(=O)N[C@@H]1C(=O)N2C(C(=O)OCOC(=O)C(C)(C)C)=C(COC(N)=O)CS[C@H]12)c1csc(N)n1	5.0%&10.3%
COc1ccc(C(=O)N2CCC3(CCCN(Cc4ccc(C#N)cc4)C3)CC2)cc1	-62.8%[inhibitor]
COCCn1c(=O)c(-c2cccc(C#N)c2)nc2cnc(OCc3ccccc3)nc21	-9.7%
Cc1cc(C(=O)NCC2CCC3(CCN(Cc4ccccc4C)CC3)O2)n(C)n1 (stereo unspecified)	-5.5%
O=C(c1cccc(F)c1)N1CCC2(CC1)CN(c1cccc(-c3ccccc3)c1)C2	89.1µM*
Cc1noc(C)c1-c1nccc(NCCN2CCOCC2)n1	-20.8%

Later entries.
Compound	EPAC1 ag val
COc1cccc(Cn2c(=O)c(-c3ccc(Cl)cc3)nc3cncnc32)c1	-35.1%[inhibitor]
COc1cc(OC)c2c(=O)c(-c3ccccc3)c(C)oc2c1OC	22.1%
O=S(=O)(c1ccccc1)N1CCC2(CCCN(c3ccccc3)C2)CC1	13.2%
COc1ccc(Oc2ncc3nc(C)c(=O)n(-c4ccc(OC)cc4)c3n2)cc1	-56.2%[inhibitor]
OC[C@@H](O)COc1cccc2ccccc12	-18.4%
COc1ccc(C(=O)N2CCC3(CCCN(c4cccc(-c5ccccc5)c4)C3)CC2)cc1	100µM*
COCC(=O)N1CCC2(CC1)CN(c1ccc(-c3ccccc3)cc1)C2	25.3%
C[C@@H](N)CCCP(=O)(O)O	-13.8%

Additional structures follow.
Compound	EPAC1 ag val
COc1cccc(Cn2c(=O)c(C)nc3cnc(N4CCOCC4)nc32)c1	-96.1%[inhibitor]
O=C(c1ccncc1)N1CCC2(CCN(Cc3ccccc3)CC2)CC1	-36.9%[inhibitor]
Nc1c(Br)cc(C=O)cc1Br	29.5%
CCCCCCCCCCCCCCCC(=O)OC/C=C(C)/C=C/C=C(C)/C=C/C1=C(C)CCCC1(C)C	-59.2%&-191.6%[inhibitor]
CCNc1ncc2nc(-c3ccc(OC)cc3)c(=O)n(CCOC)c2n1	6.3%
Cc1cccc(N(C)C(=S)Oc2ccc3ccccc3c2)c1	112µM*!
C#C[C@]1(OC(C)=O)CCC2C3CCC4=CC(=O)CCC4C3CC[C@]21C (stereo partly specified)	16.1%

Source: PubChem BioAssay (National Center for Advancing Translational Sciences (NCATS))
